# Screening data as filed in PubChem BioAssay.
# NS1 inh – inhibitors of influenza NS1 protein function. S. cerevisiae slowed by influenza A NS1, growth recovery by OD600. Potency, µM (doses to about 46.1 µM), for inactives: at the top dose activity, positive = more growth. 270,000 tested, 0.4% active; active means well fitted rising curve with a large enough effect; inconclusive means small, poorly fitted or top-dose-only effect; inactive means no such curve, though single readings can be large or run the other way; also: nearly all actives have a fitted effect of over 50% in size
#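 A cell-based growth assay was used: compounds that relieve NS1-induced slow growth of budding yeast raise OD600. Assay medium was yeast nitrogen base with ammonium sulphate and -URA supplement, pH 6.0, with 2% galactose.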
# 2A StopGo – lowers the luciferase signal of an FMDV 2A StopGo reporter | human cells with a luciferase reporter of 2A StopGo recoding; control for the full effect not named in the record | Potency, µM (titrated, usually from 57.9 µM), without a hit: at the top dose signal change, negative = less light | 410,000 tested, 1.2% active; active = well fitted falling curve with a large enough effect; inconclusive = small, poorly fitted or top-dose-only effect; inactive = no such curve, though single readings can be large or run the other way; tested in HEK293T cells; also: % is scaled to controls: 0 for no effect and ±100 for the full control effect; nearly all actives have a fitted effect of over 45% in size; luciferase light after 4 h
# Cruzain noTriton – cruzain (T. cruzi) inhibition without detergent; P25779; purified cruzain, Z-FR-AMC fluorescence, no detergent; Potency, µM, without a hit: max response, negative = inhibition, actives largely listed as inhibitors; 200,000 tested, 2.3% active;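 also: plate controls were enzyme without inhibitor for no effect and buffer without enzyme for full effect; nearly all actives have a fitted effect of over 40% in size; top concentration of the series not given in the record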
# Target sequence (P25779 123-467 limits assumed): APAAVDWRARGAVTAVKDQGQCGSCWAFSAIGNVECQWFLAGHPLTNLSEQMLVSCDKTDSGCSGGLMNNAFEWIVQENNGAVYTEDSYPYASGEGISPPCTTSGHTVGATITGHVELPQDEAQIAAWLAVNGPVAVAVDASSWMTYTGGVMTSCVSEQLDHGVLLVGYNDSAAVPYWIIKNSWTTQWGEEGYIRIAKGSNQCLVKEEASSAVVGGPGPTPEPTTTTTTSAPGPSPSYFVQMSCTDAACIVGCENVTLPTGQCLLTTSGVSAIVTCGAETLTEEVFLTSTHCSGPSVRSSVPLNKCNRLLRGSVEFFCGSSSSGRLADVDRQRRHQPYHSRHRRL
#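 Purified cruzain at 1.5 nM, pre-incubated 15 min with compound at room temperature in 100 mM sodium acetate pH 5.5, 5 mM DTT, 0.00005% Triton X-100. Reaction started with 2 uM Z-FR-AMC; AMC fluorescence increase over 60 s gives rate.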
# Lassa entry inh – Lassa virus entry inhibition. Potency, µM (doses to about 37.9 µM), for inactives: at the highest dose activity change, negative = inhibition, usual class: inhibitors. Lassa virus pseudotype entry inhibition, cell reporter; control for the full effect not named in the record. AID 540256. 300,000 tested, 1.2% active; active means well fitted inhibition curve with a large enough effect; inconclusive means small, poorly fitted or top-dose-only effect, or effect the other way; inactive means flat fitted curve, though single readings scatter; tested in HEK293 cells; also: % is scaled to controls: 0 for no effect and ±100 for the full control effect; nearly all actives have a fitted effect of over 50% in size; luciferase read-out
# RE007 growth inh – less growth of the S. pombe RE007 Vpr strain; 360,000 tested, 0.21% active; Potency, µM (doses to about 92.2 µM), inactives show at the highest dose activity change, negative = less growth; S. pombe RE007 Vpr strain, BacTiter-Glo ATP luminescence, 24 h; control for the full effect not named in the record; active = well fitted falling curve with a large enough effect; inconclusive = small, poorly fitted or top-dose-only effect; inactive = no such curve, though single readings can be large or run the other way;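 also: % is scaled to controls: 0 for no effect and ±100 for the full control effect; nearly all actives have a fitted effect of over 50% in size; the assay follows cell death caused by Vpr and the record does not say whether a fall means rescue or toxicity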
#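 Fission yeast strain RE007, carrying one chromosomally integrated HIV-1 vpr copy, was seeded at OD 0.01 in PMG+AL medium with 23 nL pinned compound. After 24 h at 30 °C and 99% humidity, viability was read by BacTiter-Glo luminescence.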
# Marburg entry inh – inhibitors of Marburg virus binding or cell entry | 300,000 tested, 1.8% active | Marburg virus pseudotyped entry inhibition, cell reporter; control for the full effect not named in the record; about a third of the inactives were read at about 46 µM | Potency, µM (top dose mostly 37.8 µM), inactives show at the highest dose activity change, negative = inhibition, usual class: inhibitors; active = well fitted inhibition curve with a large enough effect; inconclusive = small, poorly fitted or top-dose-only effect, or effect the other way; inactive = flat fitted curve, though single readings scatter; tested in HEK293 cells; about a fifth of its hits are not listed in these tables; also: % is scaled to controls: 0 for no effect and ±100 for the full control effect; luciferase read-out
# Cruzain inh Det – blocks cruzain activity in presence of Triton detergent; P25779; 200,000 tested, 0.43% active; purified cruzain, Z-FR-AMC fluorescence, 0.01% Triton; AID 1478; Potency, µM, for the others: max response, negative = inhibition, usual class: inhibitors;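 also: plate controls were neutral wells for no effect and buffer without enzyme for full effect; nearly all actives have a fitted effect of over 40% in size; top concentration of the series not given in the record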
#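 Detergent-containing arm of a paired screen for aggregation-based inhibition: 0.01% Triton X-100 present. Cruzain at 1.5 nM cleaved 2 uM Z-FR-AMC at pH 5.5 with 5 mM DTT; AMC fluorescence gain over 60 s measured activity.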
# SARS PLpro yeast – SARS-CoV PLP inhibition in yeast | S. cerevisiae expressing SARS-CoV PLpro, growth rescue; control for the full effect not named in the record | Potency, µM (doses to about 32.9 µM), for inactives: top-dose activity, positive = growth rescue | 330,000 tested, 0.19% active | AID 485353; active means well fitted rising curve with a large enough effect; inconclusive means small, poorly fitted or top-dose-only effect; inactive means no such curve, though single readings can be large or run the other way; also: 0% is about no effect; nearly all actives have a fitted effect of over 55% in size; growth read by luminescence after 48 h
# Active calls of the source: *; ? = inconclusive; . = not tested or not shown; [ ] = remark or other dose. Unless noted, calls follow the shape of the dose curve; as a rule, active = well fitted curve in the direction sought with a large enough effect; inconclusive = small, poorly fitted or top-dose-only effect, or another doubt; inactive = no such curve, though single readings can be large; an effect the other way counts as inactive or inconclusive. Potency is read from the fitted curve at half-maximal effect.
SMILES,NS1 inh,2A StopGo,Cruzain noTriton,Lassa entry inh,RE007 growth inh,Marburg entry inh,Cruzain inh Det,SARS PLpro yeast
Cc1cc(C)c(S(=O)(=O)n2cnc(C)c2)c(C)c1,.,-19%,-2%,-19%[46.1 µM],.,.,1.2%,.
O=C(CSc1nnc(-c2ccccc2)o1)N1CCc2ccccc2C1,-51%,8%,6%,0%,-16%,-44%,0.5%,-8%
O=C(Nc1nccs1)c1ccc(Cl)s1,-104%,35%[activator],-11%,.,-12%,-1%,0.6%,22%
CCN(CC)c1ccc(NS(=O)(=O)c2ccc3c(c2)CCCN3C(C)=O)c(C)c1,.,-10%,-7%,?,.,.,-0.6%,.
CCOC(=O)Cc1csc(NC(=O)C(C)c2ccc([N+](=O)[O-])cc2)n1 (stereo not drawn),.,-29%,.,14%,-17%,-29%[46.1 µM],.,1%
CCc1ccc(Nc2nnc(SCC(=O)N(C)C3CCS(=O)(=O)C3)s2)cc1 (stereo not drawn),-5%,11%,.,.,21%,.,.,-1%
C=C(C)Cn1c(SCC(=O)c2ccc(OC)cc2)nc2sc3c(c2c1=O)CCCC3,.,-6%,-6%,?,.,6%[46.1 µM],-1.5%,.
COc1cccc(NCc2cc3c(C(C)(C)C)nn(-c4ccccc4)c3[nH]c2=O)c1,13%,.,-14%,-2%,6%,-19%,-8.1%,1%
Cc1cnc(C(=O)OCC(=O)NC2CCCCCCC2)cn1,.,-10%,.,0%[46.1 µM],-1%,4%[46.1 µM],.,-1%
COc1ccc(NC(=O)c2ccc(N(C)S(C)(=O)=O)cc2)cc1OC,0%,.,-5%,-6%,-12%,3%,1.8%,3%
Cc1cccc(NC(=O)CS(=O)(=O)c2nc(-c3ccccc3)cn2-c2cccc(Cl)c2)c1C,.,5%,10µM*,-18%[46.1 µM],.,-12%[46.1 µM],-23%,.
O=c1c(F)cn(C2CCCO2)c(=O)n1Cc1c(Cl)cccc1Cl (stereo not drawn),0%,-12%,4%,-29%[14.3 µM],-8%,-22%,1.1%,-8%
COC(=O)c1cc(Cl)c(N)cc1OC,-51%,-16%,-1%,3%,3%,4%,-5.5%,3%
NC(=O)CC[C@@H]1NC(=O)[C@H](Cc2ccccc2)NC(=O)[C@H](Cc2ccc(O)cc2)NC(=O)[C@@H](N)CSSC[C@@H](C(=O)N2CCC[C@H]2C(=O)N[C@@H](CCCN=C(N)N)C(=O)NCC(N)=O)NC(=O)[C@H](CC(N)=O)NC1=O,3%,.,9%,-12%,.,5%,1.7%,-15%
COc1ccc2[nH]c(=O)c(CN(CCO)S(=O)(=O)c3ccc(C)cc3)cc2c1,4%,5%,.,.,8%,.,.,0%
Cc1oc2c(cc(NS(=O)(=O)c3ccc(F)cc3)c3ccccc32)c1C(=O)O,-1%,-17%,.,12%[46.1 µM],-9%,?,.,0%
CNC(=S)N(Cc1cc2cc(C)cc(C)c2[nH]c1=O)C1CCCC1,10%,1%,.,-5%,32%,1%[46.1 µM],.,1%
COc1cccc(-n2c(SCC(=O)NCC3CCCO3)nc3c([nH]c4ccccc43)c2=O)c1 (stereo not drawn),13%,-12%,.,-9%,-1%,-13%,.,-7%
O=C(Oc1c(-c2ccccc2)oc2ccccc2c1=O)c1ccccc1,4%,21%,-15%,?,-16%,-22%,-0.7%,0%
O=C(Nc1ccccc1Cl)c1ccccc1Cl,-42%,52%[activator],11%,-2%,-9%,22%,6.6%,-1%
Cc1ccc2c(c1)c(=O)c(Br)c(C)n2Cc1ccccc1,-2%,-2%,-6%,7%,-29%,-1%,-8.1%,?
COc1ccc2[nH]c3c(=O)n(Cc4ccc(C(=O)N5CCC(C(N)=O)CC5)cc4)c(=S)[nH]c3c2c1,.,0%,.,5%,-4%,-23%,.,2%
Cc1c(C(=O)OC2CCCC2)[nH]c2c1C(=O)CC(c1ccc(Cl)cc1)C2 (stereo not drawn),.,-20%,-2%,18%[46.1 µM],.,3%[46.1 µM],0.0%,.
Cc1cc(=S)c2cccc(C)c2[nH]1,0%,-13%,.,13%,-7%,-2%[46.1 µM],.,-2%
O=S1(=O)CCN2C(c3ccc4c(c3)CCCC4)=CSC2=N1,-5%,-18%,-11%,5%,3%,?,-1.0%,3%
COCCNS(=O)(=O)c1ccc(-c2ccc(S(=O)(=O)NCCOC)cc2)cc1,-10%,4%,-3%,38%[14.3 µM],1%,-5%,-17%,-1%
Cc1[nH]nc2c1C(c1ccc(Cl)cc1)C(C#N)=C(N)O2 (stereo not drawn),-6%,-12%,-5%,13%,-6%,8%[46.1 µM],-7.5%,1%
CCOC(=O)c1ccc2c(c1)N(CC(=O)N1CCCC1)C(=O)C(C)(C)O2,-3%,-18%,-5%,1%,-8%,-5%,-2.9%,-2%
Cc1ccc(/C(N)=N/OC(=O)c2cc(-c3ccccc3)nc3ccccc23)cc1,5%,-10%,-17%,-2%,10%,-15%,-3.3%,-2%
CCOc1ccc(CNC(=O)CCC(=O)N2CC3CCCN3c3ccccc32)cc1 (stereo not drawn),.,-21%,3%,15%[46.1 µM],.,.,-3.2%,.
Cc1ccc(C(=O)OCC(=O)Nc2cc(F)ccc2F)cc1NC(=O)c1ccco1,-5%,-15%,-3%,-13%,-3%,3%,2.9%,7%
Cc1cc(S(=O)(=O)NCc2ccccc2)ccc1OCC(=O)NCC1CCCO1 (stereo not drawn),-1%,20%,.,1%,-6%,7%,.,-1%
CCCc1cc(=O)[nH]c(SCC(=O)Nc2ccc(S(=O)(=O)N3CCCC3)cc2)n1,.,-13%,.,0%[46.1 µM],-3%,-1%[46.1 µM],.,1%
COCCSc1nc2c(c(=O)[nH]c(=O)n2C)n1Cc1cccc(C)c1,1%,?,-10%,.,9%,.,-4.0%,?
Cc1cccc(NC(=O)CS(=O)(=O)c2cn(CC(=O)N3CCOCC3)c3ccccc23)c1,.,-7%,.,?,-5%,12%[46.1 µM],.,0%
CC(Oc1ccccc1)C(=O)Nc1ccc(NC(=O)c2ccccc2)cc1 (stereo not drawn),0%,-20%,.,26%,-2%,-7%,.,0%

# Next part (2 carried over from the part before).
SMILES,NS1 inh,2A StopGo,Cruzain noTriton,Lassa entry inh,RE007 growth inh,Marburg entry inh,Cruzain inh Det,SARS PLpro yeast
Cc1cccc(NC(=O)CS(=O)(=O)c2cn(CC(=O)N3CCOCC3)c3ccccc23)c1,.,-7%,.,?,-5%,12%[46.1 µM],.,0%
CC(Oc1ccccc1)C(=O)Nc1ccc(NC(=O)c2ccccc2)cc1 (stereo not drawn),0%,-20%,.,26%,-2%,-7%,.,0%
N#CC(C(=O)NC1CCCCC1)=C1CCCCCC1,-14%,-5%,-2%,7%,14%,?,1.3%,3%
CSc1ccc(/C=N/N2CCN(Cc3ccccc3)CC2)cc1,5%,-5%,.,-1%[46.1 µM],-11%,-13%,.,1%
Cc1cc(Br)ccc1SCC(=O)OC/C(O)=C(\C#N)c1nc2ccccc2[nH]1,-3%,-27%,.,.,10%,.,.,0%
CCO[C@@H]1OC(C(=O)NCc2ccccc2)=C[C@H](C(C)(C)C)[C@H]1CCCO,-1%,-9%,.,.,2%,.,.,0%
O=C(NC1CCCCC1)c1ccc(CN2CCOCC2)cc1,-4%,40%[activator],7%,19%,11%,23%,2.3%,-2%
Cc1ccc(S(=O)(=O)Nc2cc(C(F)(F)F)ccc2N2CCOCC2)c(C)c1,2%,?,?,?,0%,?,-11%,3%
S=C(Nc1ccc(Cl)cc1)N(CCCN1CCOCC1)Cc1cccs1,-9%,15%,.,.,3%,0%,.,2%
Cc1cccc2sc(N(CCN(C)C)C(=O)c3ccc4ccccc4c3)nc12,-13%,?,.,.,-14%,.,.,-4%
CCCc1nnc(SCC(=O)N2CCOCC2)n1Cc1ccco1,2%,9%,-1%,?,2%,0%,6.5%,4%
C=CCn1c(SCC(=O)Nc2ccc3c(c2)OCO3)nnc1-c1ccccc1OC,-2%,-25%,-1%,-3%,-11%,-26%[46.1 µM],2.1%,-15%
CC1CCN(C(=O)C2CCN(S(=O)(=O)c3ccc4c(c3)CC(C)N4C(=O)C3CC3)CC2)CC1 (stereo not drawn),3%,?,.,?,2%,?,.,18%
COc1ccc(CCc2nnc(CCC(=O)NCc3cnn(-c4ccccc4C)c3)o2)cc1,-1%,-1%,.,.,20%,.,.,-1%

# Compounds above with a cyano group (3):
SMILES,NS1 inh,2A StopGo,Cruzain noTriton,Lassa entry inh,RE007 growth inh,Marburg entry inh,Cruzain inh Det,SARS PLpro yeast
Cc1[nH]nc2c1C(c1ccc(Cl)cc1)C(C#N)=C(N)O2 (stereo not drawn),-6%,-12%,-5%,13%,-6%,8%[46.1 µM],-7.5%,1%
N#CC(C(=O)NC1CCCCC1)=C1CCCCCC1,-14%,-5%,-2%,7%,14%,?,1.3%,3%
Cc1cc(Br)ccc1SCC(=O)OC/C(O)=C(\C#N)c1nc2ccccc2[nH]1,-3%,-27%,.,.,10%,.,.,0%

# (next part)
SMILES,NS1 inh,2A StopGo,Cruzain noTriton,Lassa entry inh,RE007 growth inh,Marburg entry inh,Cruzain inh Det,SARS PLpro yeast
Cc1occc1C(=O)NNC(=O)CN1C(=O)NC2(CCCCC2)C1=O,.,3%,.,0%,3%,19%,.,-1%
Fc1ccc(CNCCCSc2nnnn2-c2ccccc2)cc1,.,0%,-10%,?,.,-27%[46.1 µM],4.7%,.
CCN1CCN(C(=O)C(=O)c2cn(CC(=O)N(CC)CC)c3ccccc23)CC1,1%,5%,.,-2%,2%,10%,.,.
CCN(C(=O)CCc1ccccc1)C1CCCCC1,16%,1%,.,.,2%,.,.,0%
Cc1ccccc1-c1nc2ccccc2c(=O)n1/N=C/c1ccccc1[N+](=O)[O-],3.2µM*,-21%,-3%,10%,-5%,?,-8.2%,1%
COCCN1C=C2C(=O)C(C)(OC(=O)CCC(=O)OC)C(=O)C=C2C=C1C1CC1 (stereo not drawn),-4%,-17%,.,.,2%,.,.,0%
COC(=O)c1ccc(CNC(=O)C(NC(=O)c2ccco2)C(C)C)cc1 (stereo not drawn),-5%,3%,.,4%[46.1 µM],3%,-19%[46.1 µM],.,-2%
COC(=O)c1c(C)[nH]c(O)c1C=Nc1ccc(C#N)cc1,-11%,13%,.,.,11%,.,.,-1%
